EPAC2 ant val: human EPAC2 antagonism, validation. 16,000 compounds, 1.7% hits. AID 1645886. EPAC2 Rap1B BODIPY-GDP exchange, fluorescence. Potency, µM (doses to about 112 µM), inactives show top-dose activity, negative = inhibition, usual class: inhibitors. Q8WZA2; active = well fitted inhibition curve with a large enough effect; inconclusive = small, poorly fitted or top-dose-only effect; inactive = no such curve, though single readings can be large or run the other way;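 note: 100% = activation by cAMP agonist control; nearly all actives have a fitted effect of over 40% in size; the record reuses the description of the EPAC1 agonist screen; inactives centre near -10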
Target sequence (Q8WZA2 whole entry, looked up): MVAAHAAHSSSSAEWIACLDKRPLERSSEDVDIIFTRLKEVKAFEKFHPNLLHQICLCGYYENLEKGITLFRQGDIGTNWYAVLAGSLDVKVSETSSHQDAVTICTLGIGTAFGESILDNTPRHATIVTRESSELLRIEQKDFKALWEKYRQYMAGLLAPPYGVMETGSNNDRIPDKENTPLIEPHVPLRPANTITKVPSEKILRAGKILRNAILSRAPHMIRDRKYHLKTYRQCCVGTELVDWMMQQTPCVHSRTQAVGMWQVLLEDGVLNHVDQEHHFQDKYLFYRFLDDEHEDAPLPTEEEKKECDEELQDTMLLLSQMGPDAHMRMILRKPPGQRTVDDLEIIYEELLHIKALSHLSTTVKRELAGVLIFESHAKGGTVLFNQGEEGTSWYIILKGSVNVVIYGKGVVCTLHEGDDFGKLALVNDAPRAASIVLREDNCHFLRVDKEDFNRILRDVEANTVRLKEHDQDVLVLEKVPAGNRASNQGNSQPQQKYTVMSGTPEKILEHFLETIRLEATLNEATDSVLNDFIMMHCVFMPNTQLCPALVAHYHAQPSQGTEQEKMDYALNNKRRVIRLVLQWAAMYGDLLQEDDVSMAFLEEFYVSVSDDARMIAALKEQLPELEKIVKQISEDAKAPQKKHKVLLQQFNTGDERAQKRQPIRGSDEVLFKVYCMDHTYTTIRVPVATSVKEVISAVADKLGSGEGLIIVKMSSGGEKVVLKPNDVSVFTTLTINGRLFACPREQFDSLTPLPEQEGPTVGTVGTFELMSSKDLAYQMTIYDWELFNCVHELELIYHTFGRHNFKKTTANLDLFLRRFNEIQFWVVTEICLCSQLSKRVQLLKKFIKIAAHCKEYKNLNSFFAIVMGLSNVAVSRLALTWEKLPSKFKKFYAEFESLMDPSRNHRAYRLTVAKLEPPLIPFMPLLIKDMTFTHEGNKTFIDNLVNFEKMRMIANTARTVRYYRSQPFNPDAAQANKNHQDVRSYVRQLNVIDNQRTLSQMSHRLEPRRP
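Fluorescent exchange read-out: 100 nM EPAC2 with 250 nM RAP1B–BODIPY-GDP and 50 uM GDP; BODIPY-GDP release lowers fluorescence. Read at 480/540 nm every 5 min for 30 min at room temperature; normalized to 6.5 mM cAMP.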
Starred values were filed as active, the others as inactive; ? = inconclusive; & = joins results of further samples; ! = repeats disagree; [ ] = dose if it differs, or a comment. Potency is the fitted concentration of half-maximal effect. A portion of the library (hit frequency here may not be typical).

molecule	EPAC2 ant val
CN(C)C(=O)c1ccc(-c2cncnc2NCCN2CCOCC2)cc1	-13.1%
COCC(=O)N1CCC2(CC1)CN(Cc1nccs1)C2	-5.2%
COC(=O)c1c(OCc2cccnc2)cc(=O)n2c1CCN(C(=O)c1c3c(nn1C)CCCC3)CC2	-16.2%
Cc1cnc(CNc2ncncc2-c2ccoc2)cn1	2.6%
CCCCCCCCN1[C@@H](CC(=O)O)c2cc(C(F)(F)F)ccc2S1(=O)=O	-25.0%
Cc1nc(-c2coc3c(O)c(O)ccc3c2=O)cs1	13.6%
CCCCCCCCCCCCOS(=O)(=O)O	?
O=C(O)c1ccccc1Nc1cccc(C(F)(F)F)c1	35.5µM*!
Cc1cc(N(C)C)cc(C)c1/C=C/c1cc[n+](C)c2ccccc12	-12.1%
CC1OC(n2cc(F)c(=O)[nH]c2=O)C(O)C1O (stereo not given)	-9.1%
COc1cccc(Nc2ncc3nc(-c4cn(C)c5ccccc45)c(=O)n(C[C@H]4CCCO4)c3n2)c1	8.7%
Cn1cccc1C(=O)N1CCC[C@@]2(CCN(Cc3cc(C(F)(F)F)cc(C(F)(F)F)c3)C2)C1	?
COC(=O)c1c(C)c2c(c(C)c1O)OC(=O)c1c(C)c(Cl)c(O)c(Cl)c1O2	2.51µM*
Cc1cc(C(C)(C)CC(C)(C)C)ccc1OCCOCC[N+](C)(C)Cc1ccccc1	?
O=C(O)CCC(=O)C(=O)O	-8.8%
O=S1(=O)CCOC[C@H](CC2CCCCC2)N1Cc1ccccc1Br	?
COC(=O)N1CCC2(CCCN(C(=O)Nc3ccccc3)C2)CC1	-18.7%
C[N+](C)(C)CCCCCC[N+](C)(C)C	-12.2%&10.1%&-19.0%&-16.6%
CC(=O)N1CCC2(CC1)CCN(C(=O)Nc1cccc(C#N)c1)CC2	-18.4%
CCC(=O)O[C@H](CC(=O)O)C[N+](C)(C)C	-13.9%
CN(C)c1ncc2nc(CCc3ccccc3)c(=O)n(Cc3cccs3)c2n1	10.7%
O=C(O)c1cc(O)c2c(c1)C(=O)c1cc(O)cc(O)c1C2=O	?
O=C(Nc1ccccc1)N1CC[C@@]2(CCCN(C(=O)c3ccco3)C2)C1	-21.1%
C=C1c2c(Cl)ccc(O)c2C(O)=C2C(=O)[C@]3(O)C(O)=C(C(N)=O)C(=O)[C@@H](N(C)C)[C@@H]3[C@@H](O)C12 (stereo not given in full)	15.3%[29.6 µM]
COC(=O)C1CCN(Cc2ccc3c(c2)CN(C(=O)c2cc4ccccc4n2C)CCO3)CC1	-11.0%
CC(=O)[C@@]1(O)CC[C@H]2[C@@H]3C=C(Cl)C4=CC(=O)[C@@H]5C[C@@H]5[C@]4(C)[C@H]3CC[C@@]21C	26.4%
N[C@H](C(=O)O)C(O)C(O)C(O)CO (stereo not given in full)	-19.8%
COc1cccc(-n2c(SC)nnc2C2CCN(CCC(C)c3ccc(C)o3)CC2)c1 (stereo not given)	4.0%
CCNc1ncc2nc(-c3ccc(OC)cc3)c(=O)n(C[C@H]3CCCO3)c2n1	0.7%
Cc1nc2cnc(N3CCOCC3)nc2n(CCc2ccccc2)c1=O	-15.0%
Nc1nc(N)c(N)c(=O)[nH]1	-3.3%
COc1ccc(-c2nc3cnc(Oc4ccccc4)nc3n(CCC#N)c2=O)cc1	-28.3%
C[C@@H]1[C@H](c2ccccc2)OCCS(=O)(=O)N1Cc1ccccc1	-1.9%
O=C(CSc1ncccn1)NCC1Cc2cccc(-c3ncccn3)c2O1 (stereo not given)	-21.8%
CC(C)(C)c1cc(O)c(C(C)(C)C)cc1O	-6.6%[239 µM]
Cc1ccnc2c(Cl)cccc12	9.1%
CC1=CC(=O)C2C(C)(C)CCC[C@@]2(C)[C@@]1(O)CCc1ccoc1 (stereo not given in full)	?
COc1cc2ccc(=O)oc2c(O)c1O	-1.6%&-8.2%
CC1(C)S[C@@H]2[C@H](NC(=O)[C@H](N)c3ccc(O)cc3)C(=O)N2[C@H]1C(=O)O	-7.8%&-2.8%
C=C[C@@]1(C)CC(=O)[C@]2(O)[C@@]3(C)[C@@H](O)CCC(C)(C)[C@@H]3[C@H](O)[C@H](OC(C)=O)[C@@]2(C)O1	-20.1%
N[C@H](C(=O)O)c1ccc(O)cc1	-2.8%
C[Si](C)(C)O[Si](C)(C)C	-8.5%
COc1cc(O)c(C(=O)c2ccccc2)cc1S(=O)(=O)O	9.7%
C[N+]1(CC(=O)c2ccc(I)cc2)CCOCC1	-10.0%
COc1[nH]c2ccc(F)cc2c1C(=O)OCC1CCN(CCNS(C)(=O)=O)CC1	-14.6%
COCCn1c(=O)c(-c2cccc(C#N)c2)nc2cnc(Nc3ccccc3)nc21	9.9%
CNc1ncnc2ccc(-c3ccccc3C#N)cc12	-14.3%
Nc1ccn([C@H]2CS[C@@H](CO)O2)c(=O)n1	-14.3%
C=C1C2CC[C@@]3(C)C(c4ccoc4)OC(=O)C[C@@]13OC1CC(=O)C(C)(C)C(CC(=O)OC)[C@]12C (stereo not given in full)	-12.8%
C=C1CCC(=O)C(C)CCC2C1CC2(C)C (stereo not given)	-23.0%
COc1ccc(S[C@@H](CCN2CC[C@H](NC(=O)OCc3ccccc3)CCC2=O)c2ccccc2)cc1	?
O=S(=O)(NCc1ccc(F)cc1)c1ccccc1Br	?
CCC1COCCS(=O)(=O)N1Cc1ccc(Cl)cc1 (stereo not given)	-28.5%
COc1ccc(CN2CCC3(CC2)c2ccccc2[C@@H](NC(=O)c2ccco2)[C@@H]3OC)c(O)c1	-29.1%
CCCCCCCCCCCCCCCCCCNC(=O)OCC(COP(=O)([O-])OCC[n+]1ccsc1)OC (stereo not given)	-20.7%
CC(C)(C)C1(O)CCN2CC3c4ccccc4CCc4cccc(c43)C2C1 (stereo not given)	-10.9%

Some values from the results shown:
C=C1CCC(=O)C(C)CCC2C1CC2(C)C (stereo not given) in EPAC2 ant val = -23.0%
CCCCCCCCCCCCCCCCCCNC(=O)OCC(COP(=O)([O-])OCC[n+]1ccsc1)OC (stereo not given) in EPAC2 ant val = -20.7%

Following part:
molecule	EPAC2 ant val
CCNc1ncc2nc(-c3ccc(F)cc3)c(=O)n(C)c2n1	-38.5%
CN(C)c1ncc2nc(-c3cccs3)c(=O)n(CCc3ccccc3)c2n1	-29.2%
O=C(NCCc1cccnc1)c1cnn(-c2ncc3c(n2)-c2ccccc2CC3)c1C1CC1	-7.6%
Cn1cccc1C(=O)N1CCC2(CC1)CN(C(c1ccccc1)c1ccccc1)C2	?
COc1ccc(CNc2ccnc(-c3cccc(NS(C)(=O)=O)c3)n2)c(OC)c1	?
O=C(N[C@H](CO)[C@H](O)c1ccc([N+](=O)[O-])cc1)C(Cl)Cl	-16.6%
N=c1ccn2c(n1)O[C@@H]1[C@H](O)[C@H](CO)O[C@@H]12	-13.1%
CCN1C(=O)C=CC1=O	-20.3%
Cc1cnc(CNc2ncncc2-c2ccccc2Cl)cn1	-6.4%
CCCCCCc1c(C[C@H](N)C(=O)O)o[nH]c1=O	-11.0%&-28.4%
COc1cccc(-c2cc(NCc3cccnc3)ncn2)c1	-26.7%
COCCn1c(=O)c(-c2ccc(OC)cc2)nc2cnc(Oc3ccccc3)nc21	-32.4%
CCCN(CC1CC1)c1nc(C)nc(Nc2c(Cl)cc(Cl)cc2Cl)c1Cl	-13.2%&-21.2%
CN(C)C(=O)c1ccc(-c2nccc(NCc3cccnc3)n2)cc1	-11.4%
O=C(O)C[C@H]1c2ccccc2S(=O)(=O)N1C1CCCC1	-18.1%
C=CCN1CCc2cc(O)c(O)cc2[C@H](c2ccccc2)C1	-29.4%
O=c1cc(-c2ccccc2)oc2c1ccc1ccccc12	-18.9%
COc1ccc(C(=O)N2CCC3(CCN(Cc4cc(C(F)(F)F)cc(C(F)(F)F)c4)CC3)CC2)cc1	28.2µM*
O=c1c(CCc2ccccc2)nc2cnc(Nc3ccccc3)nc2n1C[C@H]1CCCO1	-2.2%
CC1=C2C(=COC(C)C2C)C(=O)C(C(=O)O)=C1O (stereo not given)	-9.7%
C/C=C(\C)C(=O)OC1c2c(ccc3ccc(=O)oc23)OC(C)(C)C1OC(C)=O (stereo not given)	-17.6%
COc1ccc(Oc2ncc3nc(-c4cccc(C#N)c4)c(=O)n(Cc4cccc(OC)c4)c3n2)cc1	-5.6%
CC(=O)N1CCC2(CC1)CCN(C(=O)Nc1cccc(F)c1)CC2	-14.6%
COC(=O)c1sccc1S(=O)(=O)N1CCC(n2c(CC3CCCC3)nc3cccnc32)CC1	1.1%
CO[C@@]1(NC(=O)C(C(=O)O)c2ccc(O)cc2)C(=O)N2C(C(=O)O)=C(CSc3nnnn3C)CO[C@@H]21 (stereo not given in full)	7.5%[56.6 µM]
COC(=O)CC1C2(C)CC34OC5(C)O[C@@]6(C7/C(=C(/O)C(C)C)C(=O)OC(c8ccoc8)[C@]7(C)C(OC(C)=O)C(OC(C)=O)[C@]6(O5)[C@@]13C)C(OC(C)=O)[C@]4(O)C2OC(=O)C(C)C (stereo not given in full)	?
C=C1CCC2C(C)(CO)C(O)CCC2(C)C1C/C=C1\C(=O)OCC1O (stereo not given)	-8.7%
CN(CC1COCCO1)C(=O)c1cnn(-c2nccc(-c3ccccc3C(F)(F)F)n2)c1C1CC1 (stereo not given)	-2.8%
c1ccc(C(NCc2cccnc2)(c2ccccc2)c2ccccc2)cc1	10µM*
O=C(O)c1cc2ccccc2[nH]1	-5.9%
CC(C)CCCC(C)C1CCC2C3=CC[C@@H]4CC(O)CC[C@@]4(C)C3CC[C@]21C (stereo not given in full)	6.5%
O=C1CS(=O)(=O)N(Cc2cccc(F)c2)c2ccc(Br)cc21	-23.2%
COC(=O)[C@H](Cc1ccccc1)NS(=O)(=O)N[C@@H](Cc1ccccc1)C(=O)OC	-28.5%
CC(C)c1c(C(=O)NCC(C)(C)N2CCOCC2)cnn1-c1nccc(-c2ccccc2F)n1	4.7%
Cc1c(Br)cnc2ccccc12	-6.5%
COc1ccc(CNCC(O)COc2ccc3[nH]c(=O)ccc3c2)cc1OC (stereo not given)	22.1%
N[C@H](C(=O)O)[C@@H](O)c1ccc(O)c(O)c1	79.4µM*
O=c1cc(O)cc(/C=C/c2ccc(O)c(O)c2)o1	-1.7%
C[n+]1ccccc1/C=N/O	-2.3%
CCOC(=O)C1CCCN(C(=O)c2cnn(-c3nccc(-c4cc(C)sc4C)n3)c2C)C1 (stereo not given)	?
CN(C)CCCc1cc(C(=O)Nc2ccc(-c3ccncc3)cc2)ccc1O	?
C[N+]1(CC(=O)c2ccc(Br)cc2)CCOCC1	-11.0%
CCCCCCCCOc1ccc(C(=O)c2ccccc2)c(O)c1	11.9%
CS(=O)(=O)N1CCC2(CC1)CN(C(=O)Nc1cccc(F)c1)C2	-15.6%
Cc1cc(=O)[nH]c2ccc([N+](=O)[O-])cc12	9.3%
COc1ccc(-c2nc3cc(C)ccc3cc2CN(C(=O)c2ccco2)C2CC2)cc1OC	6.3%
COc1ccccc1-c1ccc2ncnc(N(C)Cc3ccco3)c2c1	50.1µM*
COc1ccc2cc(CNCc3ccccc3C(F)(F)F)c(N3CCCC(CO)C3)nc2c1 (stereo not given)	-23.4%

Of the compounds above, four have an aryl thioether with sulfur outside any ring:
molecule	EPAC2 ant val
COc1cccc(-n2c(SC)nnc2C2CCN(CCC(C)c3ccc(C)o3)CC2)c1 (stereo not given)	4.0%
O=C(CSc1ncccn1)NCC1Cc2cccc(-c3ncccn3)c2O1 (stereo not given)	-21.8%
COc1ccc(S[C@@H](CCN2CC[C@H](NC(=O)OCc3ccccc3)CCC2=O)c2ccccc2)cc1	?
CO[C@@]1(NC(=O)C(C(=O)O)c2ccc(O)cc2)C(=O)N2C(C(=O)O)=C(CSc3nnnn3C)CO[C@@H]21 (stereo not given in full)	7.5%[56.6 µM]

Remaining list, next part
molecule	EPAC2 ant val
COCCn1c(=O)c(CCc2ccccc2)nc2cnc(Nc3ccccc3)nc21	-11.8%
CCN[C@H]1C[C@H](C)S(=O)(=O)c2sc(S(N)(=O)=O)cc21	-9.1%
COCc1c(C(=O)N2CCC(c3ccccc3)CC2)cnn1-c1nccc(-c2cc(C)sc2C)n1	?
CC(=O)OC1CCC2(C)C3=C(CCC2C1(C)C)[C@@]1(C)CCC(C(C)CCC=C(C)C)[C@@]1(C)CC3 (stereo not given in full)	-12.6%
CCC1(C2CCN(Cc3ccc(OC)cc3)CC2)NC(=O)N(CC2COc3ccccc3O2)C1=O (stereo not given)	-1.6%
CC(C)C(NS(C)(=O)=O)c1nnc2n1CCN(Cc1ccnc3ccccc13)CC2 (stereo not given)	-13.4%
COCc1c(C(=O)N2CCN(c3ccccc3O)CC2)cnn1-c1nccc(-c2cccs2)n1	3.9%
O=C(CCn1c(=O)[nH]c2ccccc21)NCC1Cc2cc(Cl)cc(-c3ccncc3)c2O1 (stereo not given)	-20.4%
O=C(Nc1ccc(Cl)cc1Cl)[C@@H]1CC=C[C@@H]2CCN(C3CC3)C(=O)[C@@H]21	?
CC1(O)CC2C(CC1O)C2(C)C (stereo not given)	-19.8%
Cc1ccc2nc(SCC(=O)NCC3Cc4cccc(-c5nc(C)cnc5C)c4O3)[nH]c2c1 (stereo not given)	-17.1%
CN(N=O)C(=O)N[C@@H]1[C@@H](O)[C@H](O)[C@@H](CO)O[C@@H]1O	6.4%[56.6 µM]

Bioassay records as filed in PubChem.
